Screening data as filed in PubChem BioAssay.
LANA-H2B inh – blocks KSHV LANA binding to histone H2A/H2B | Q9QR71 | cell-free LANA-H2A/H2B peptide, fluorescence polarization | inhibition, % (concentration not given with the values) | hit rate 0.6% among 320,000 | AID 2629; in the data active = inhibition mostly above about 10%, no sharp cut-off; inactive = mostly below about 6.7%;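 note: stock transfer was 7.5 nL into about 10 µL; 0% = median of vehicle wells and 100% = median of positive control wells; one replicate is shown; the record names a cut of 25% in any replicate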
A1 inh – inhibitors of the anti-apoptotic protein A1, read as caspase activation; MEF A1-2A-BIM cells, Caspase-Glo 3/7 luminescence, 3 h; percent of clofoctol response, vehicle zero; caspase activation, % (concentration not given with the values); hit rate 0.066% among 330,000; AID 2462;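 active = over half of replicate activation scores above 10%, or exactly half above 10 with the replicate mean above 10; inconclusive = replicate mean below 10 yet half the replicates above 10; inactive = over half of replicates below 10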;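 note: wells of about 30 µL received 50 nL stock; many hits fall short of the cut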
UCH37 DUB inh – blocks the human deubiquitinase UCH37; AID 588478; hit rate 0.33% among 330,000; inhibition, % (concentration not given with the values); purified proteasome/UCH37, Ub-AMC cleavage fluorescence;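 active = mean of two replicates above 20%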;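 note: 0% = compound-free wells with enzyme and 100% = wells lacking proteasome; stock transfer was 100 nL into about 20 µL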
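Signal – fluorescence, ex 355 nm, em 460 nm · System – Proteasome-bound UCH37 · Input – 0.15 nM proteasome as dispensed · Timing – 30 min preincubation with enzyme, 25 min cleavage at room temperature · Read-out basis – percent inhibition of cleavage signal versus uninhibited and no-proteasome wells · Medium – Tris-HCl pH 7.4 with ATP-MgCl2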
Vif A3G – HIV-1 Vif–A3G interaction blockers – biochemical, TR-FRET, GST-Vif 1-94, biotin-A3G peptide, dose response retest, primary screen (AID 1117319) | hit rate 0.57% among 260,000 | TR-FRET GST-Vif / biotin-A3G peptide binding; higher % means a stronger effect; test concentration not given here; strong numbers were not always called active | one-dose inhibition, %; IC50 in µM for titrated hits;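 active = above the screen mean plus three standard deviations and confirmed in dose response; inconclusive = results disagree or hit not tested in dose response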;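 note: Vif residues 1-94 fused to GST binding biotinylated APOBEC3G peptide 110-148; 0% = full assay without inhibitor and 100% = GST in place of GST-Vif; retest series ran down from 100 µM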
B2AR ag – human beta-2 adrenergic receptor agonism by FAP; hit rate 0.43% among 340,000; response, % (no concentration beside the values); Am2.2-beta2AR cells, FAP receptor internalization, flow cytometry; reference of the scale not given here;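 active = response above a set limit, near 3 SD of response in nonfluorescent compounds, cut at about 42% in these data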;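 note: stock transfer was 100 nL into about 11 µL; a reference agonist was the positive control; negative values mostly stem from fluorescent compounds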
Target sequence (P07550 whole entry, looked up): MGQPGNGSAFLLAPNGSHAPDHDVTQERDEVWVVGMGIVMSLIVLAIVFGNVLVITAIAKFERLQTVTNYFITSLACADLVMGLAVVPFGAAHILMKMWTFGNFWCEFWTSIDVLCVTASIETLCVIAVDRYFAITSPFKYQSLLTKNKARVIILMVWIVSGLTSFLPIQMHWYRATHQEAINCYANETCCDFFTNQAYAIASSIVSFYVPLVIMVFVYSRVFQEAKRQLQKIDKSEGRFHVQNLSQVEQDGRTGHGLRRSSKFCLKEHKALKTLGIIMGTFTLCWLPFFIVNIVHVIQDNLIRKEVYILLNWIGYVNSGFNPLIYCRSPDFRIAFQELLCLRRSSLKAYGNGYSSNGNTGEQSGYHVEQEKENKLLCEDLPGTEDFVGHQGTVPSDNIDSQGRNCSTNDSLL
Ecoli growth – blocks Escherichia coli growth; OD600, 23 h; active compounds read low; hit rate 0.21% among 330,000; OD600 absorbance (concentration not given with the values); AID 1053175;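 active = OD600 absorbance below the run mean of sample wells minus 3.6 SD, in any replicate, cut at about 0.56 in these data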;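 note: stock transfer was 300 nL into about 60 µL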
HNF4A DNA FP – change in binding of human HNF4 alpha to DNA; activity change, % at 10 µM; P41235; HNF4a-FITC DNA binding, fluorescence polarization, 1 h; hit rate 0.3% among 360,000; in the data active = activity change above about 30%, passing the limit was not always enough;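 note: controls were the assay level and a saturating level of protein; the project sought stronger binding though the title names inhibitors; some compounds called inactive have numbers as strong as hits; positive values seem to mean higher polarization but the record does not say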
Target sequence (P41235 whole entry, looked up): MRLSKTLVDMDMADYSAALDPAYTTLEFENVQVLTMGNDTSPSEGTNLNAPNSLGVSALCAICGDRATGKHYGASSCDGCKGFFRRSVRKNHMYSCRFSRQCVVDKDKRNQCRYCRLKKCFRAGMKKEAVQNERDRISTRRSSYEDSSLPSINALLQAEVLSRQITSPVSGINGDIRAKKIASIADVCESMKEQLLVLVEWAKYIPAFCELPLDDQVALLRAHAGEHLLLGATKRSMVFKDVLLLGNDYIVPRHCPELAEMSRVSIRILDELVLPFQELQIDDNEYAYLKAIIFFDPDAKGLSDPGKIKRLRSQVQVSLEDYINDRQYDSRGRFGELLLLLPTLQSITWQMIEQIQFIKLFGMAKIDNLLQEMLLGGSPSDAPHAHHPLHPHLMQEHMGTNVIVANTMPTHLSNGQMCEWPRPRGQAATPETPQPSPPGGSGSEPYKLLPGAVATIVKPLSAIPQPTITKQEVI
* marks the source's active call; other numbers are inactive results; i = inactive; ? = inconclusive; / = not tested or not shown.

Results follow in this order: LANA-H2B inh, A1 inh, HNF4A DNA FP, Vif A3G, B2AR ag, UCH37 DUB inh, Ecoli growth
- COc1ccc(S(=O)(=O)N2CCOC23CCN(S(=O)(=O)c2c(C)cc(C)cc2C)CC3)cc1
→ -1.4, -0.1, -3.0, 20.9%, -0.3, 0.7, 0.641
- CC(C(=O)N1CCN(c2ccccc2F)CC1)c1ccc([N+](=O)[O-])cc1 (stereo unspecified)
→ 0.7, 0.0, -1.2, -1.6%, 5.5, 0.8, 0.669
- Nc1ncnc(N2CCc3ccccc32)c1[N+](=O)[O-]
→ 1.9, -0.2, -2.1, -0.7%, -3.2, /, /
- CC1(C)CC(=O)/C(=N/Nc2ccc(Cl)cc2)CO1
→ -2.7, -0.8, -1.4, 6.3%, 3.4, /, /
- O=C(NCc1ccccc1Cl)c1ccccc1Oc1ccccc1
→ 2.2, -0.7, -3.5, /, -13.4, 2.9, 0.596
- Cc1ccc(NC(=O)CSc2nc(=O)n(Cc3ccncc3)c3c2CCC3)c(C)c1
→ 2.2, 0.2, -0.2, -2.3%, -2.5, 3.9, 0.706
- COc1ccccc1N1CCN(C(=O)c2cc(-c3ccc(F)cc3)[nH]c2C)CC1
→ -2.4, -0.3, -1.6, -2.4%, 9.2, 1.1, 0.66
- O=C(COc1ccc2ccccc2c1)N[C@@H](C(=O)O)c1ccc(O)cc1
→ 1.6, -0.1, 3.5, 2.4%, 5.2, -1.6, 0.687
- CN(C)S(=O)(=O)c1ccc2c(c1)C(CC(=O)O)OC2=O (stereo unspecified)
→ -1.5, -0.2, 0.9, -0.7%, 48.7*, -0.9, 0.658
- CCn1c2ccccc2c2c3ncc4cccn4c3ccc21
→ 1.6, -1.9, 24.0, 2.1%, -163.1, i, 0.697
- CCOc1ccccc1N1CCN(C(=O)c2cc(S(=O)(=O)N3CCCCC3)ccc2C)CC1
→ 0.0, 0.3, -0.6, /, 9.4, 4.3, 0.669
- Cc1ccc(S(=O)(=O)Cc2cc(-c3ccc(Cl)cc3)no2)cc1
→ 2.9, 0.0, 1.4, -0.9%, -4.7, 0.4, 0.65
- c1ccc(Oc2cc(-c3ccccc3)nc(-c3ccccc3)n2)cc1
→ -4.7, -0.6, -1.9, -2.9%, 6.4, 3.2, 0.69
- COC(CNC(=O)[C@H](Cc1ccccc1)N1Cc2ccccc2C1=O)OC
→ -10.5, -0.1, -1.5, -7.1%, -7.1, 5.8, 0.697
- CCc1nn(CC(=O)NCCCc2ccccc2)c(=O)c2cc3c(OC)cccc3n12
→ 5.5, 0.9, 2.7, /, 3.4, -71.6, 0.724

The list goes on; the last 3 above are carried over.
Results follow in this order: LANA-H2B inh, A1 inh, HNF4A DNA FP, Vif A3G, B2AR ag, UCH37 DUB inh, Ecoli growth
- c1ccc(Oc2cc(-c3ccccc3)nc(-c3ccccc3)n2)cc1
→ -4.7, -0.6, -1.9, -2.9%, 6.4, 3.2, 0.69
- COC(CNC(=O)[C@H](Cc1ccccc1)N1Cc2ccccc2C1=O)OC
→ -10.5, -0.1, -1.5, -7.1%, -7.1, 5.8, 0.697
- CCc1nn(CC(=O)NCCCc2ccccc2)c(=O)c2cc3c(OC)cccc3n12
→ 5.5, 0.9, 2.7, /, 3.4, -71.6, 0.724
- COc1ccc(Cn2c(=O)oc3ccc(C)cc32)cc1OC
→ -5.1, 0.3, -0.2, -4.1%, 6.7, 6.7, 0.677
- O=C(NC1CCN(Cc2ccccc2)CC1)c1cccc(Br)c1
→ 3.0, 0.0, 1.2, 9.4%, 3.1, 2.8, 0.69
- COc1ccc(C(=O)N(CC(=O)NC(C)(C)C)c2ccc3c(c2)OCCO3)cc1OC
→ -3.5, -0.3, -0.2, 0.9%, 4.7, 1.3, 0.744
- COc1cc(C(=O)NCC(=O)N/N=C/c2cccs2)cc(OC)c1OC
→ 6.0, -0.4, 4.1, 0.8%, -1.9, /, /
- COc1ccccc1C1(CC(=O)O)CCOC(C(C)C)C1 (stereo unspecified)
→ 3.9, -0.1, -2.5, 1.9%, 4.7, -0.1, 0.675
- COc1ccc(S(=O)(=O)N(C)C)cc1NCC(=O)Nc1ccc(F)cc1F
→ -5.2, 0.3, 2.6, 5.7%, 5.7, 1.4, 0.664
- O=C(Oc1ccc[nH]c1=O)c1cc([N+](=O)[O-])cc([N+](=O)[O-])c1
→ 3.6, 0.0, -0.1, 32.7%, 12.9, /, /
- Cc1cccc(NC(=O)CO/N=C/c2ccc3c(c2)OCO3)c1
→ -2.8, -0.7, 0.0, /, -7.0, /, /
- O=C(Nc1ccc(N2CCOCC2)cc1N1CCOCC1)c1ccco1
→ 3.2, 0.0, -2.7, 1.1%, -1.6, 3.0, 0.721
- CCn1c(NC(=O)C2CCCCC2)nc2ccccc21
→ 2.0, -0.4, -0.3, -0.6%, -18.5, 1.1, 0.653
- CSCCC(NC(=O)c1ccc(Cl)c([N+](=O)[O-])c1)C(=O)N1CCN(C/C=C/c2ccccc2)CC1 (stereo unspecified)
→ 7.4, 0.3, 3.3, 7.0%, 22.5, 2.0, 0.659
- O=C(COC(=O)c1ccccc1NCCO)NCCc1ccccc1
→ 3.1, -0.1, 1.0, 1.8%, 6.4, -333.3, 0.683
- CCN(CC(=O)NCC1CCCO1)S(=O)(=O)c1ccc(Cl)cc1 (stereo unspecified)
→ 2.9, 0.1, -1.4, 2.5%, -7.9, 0.8, 0.665
- COc1ccc(CCN2C(=O)N(c3ccc(OC)cc3)C(=O)C2CC(=O)Nc2ccc(OC)cc2)cc1 (stereo unspecified)
→ 4.2, -0.7, 3.8, -6.4%, -3.1, -3.4, 0.682
- O=c1c2ccccc2oc2ccc(NCCCn3ccnc3)cc12
→ 3.3, -5.7, -2.4, /, -5.9, -2.5, 0.665
- O=C(CCCCCN1C(=O)c2cccc3cccc(c23)C1=O)N1CCOCC1
→ 3.2, 0.0, 4.3, 32.0%, 4.4, -66.3, 0.695
- CCOC(=O)N1CCN(Cc2nc3c(c(=O)[nH]c(=O)n3C)n2Cc2ccccc2C)CC1
→ -4.8, -0.7, -1.8, 23.6%, -14.8, 1.2, 0.68
- Cc1c(C(=O)Nc2ccc(S(N)(=O)=O)cc2)oc2ccc(Cl)cc12
→ 3.2, 0.4, -4.5, -14.6%, -0.5, -12.1, 0.684
- CCOc1ccc(C(=O)N/N=C(/C)C2C(=O)c3ccccc3C2=O)cc1
→ 1.8, -2.4, -0.9, 8.9%, 4.3, /, /
- Nc1cc(=O)[nH]c(SCC(=O)Nc2ccc(F)c(Cl)c2)n1
→ 0.5, -0.2, -2.5, 2.2%, -7.0, 5.1, 0.724
- COc1ccc(CNC(=O)CCCn2c(=S)[nH]c3cc4c(cc3c2=O)OCO4)cc1
→ 0.0, -3.6, 0.4, -15.3%, -2.1, 4.1, 0.685
- COc1ccc(CC(=O)NC2CCN(CC(=O)Nc3ccc4c(c3)OCCO4)CC2)cc1OC
→ -3.5, 0.4, -2.8, -2.4%, -2.9, 3.0, 0.73
- COc1ccc(Nc2nc(C(=O)NCCCN3CCOCC3)cs2)cc1
→ 11.4, -0.6, 8.5, -4.0%, 7.5, 3.7, 0.605
- CCc1noc(C)c1C(=O)N(CC(C)C)c1c(N)n(Cc2ccccc2)c(=O)[nH]c1=O
→ /, /, 0.3, -1.4%, 0.8, 1.6, 0.702
- COCC(=O)OCC(=O)N1N=C(c2ccc(Cl)cc2)CC1c1ccco1 (stereo unspecified)
→ /, -2.8, 3.2, -1.8%, -4.4, 4.2, 0.731
- COc1cc(NC(=S)Nc2ncccc2C)cc(OC)c1OC
→ -11.4, 0.1, 1.9, -2.4%, 1.0, 1.0, 0.696
- CC(O)C(NC=C1C(=O)OC(C)(C)OC1=O)C(=O)O (stereo unspecified)
→ 2.4, -0.2, -1.6, -9.8%, 2.2, 1.5, 0.726
- Cc1nn(C)c(C)c1C(C)NC(=O)c1cc(COc2cncc(Cl)c2)on1 (stereo unspecified)
→ 9.7, 0.1, -0.6, /, -0.1, -2.4, 0.674
- COc1ccc(CN(C(=O)c2ccc(-c3ccccc3)[nH]2)C(C(=O)NC(C)(C)C)c2ccncc2)cc1 (stereo unspecified)
→ 4.0, 0.0, 5.9, -12.5%, -11.6, 1.4, 0.663
- CC1=C(C(=O)OCCOc2ccccc2)C(c2ccc(C)o2)C2=C(CC(C)(C)CC2=O)N1 (stereo unspecified)
→ -8.6, 0.5, 1.2, 79.8%, -7.0, -267.6, 0.712
- O=C(Cc1ccccc1Cl)Nc1nc2ccccc2[nH]1
→ 0.6, -1.1, 4.5, -4.9%, 0.7, 4.4, 0.703
- CC(=O)c1cc(C#N)c(Oc2cc(C)cc(C)c2)nc1C
→ 0.9, 0.8, -2.1, -3.1%, 4.8, -0.1, 0.769
- O=C(C[n+]1ccccc1)Nc1ccccc1[N+](=O)[O-]
→ 111.2*, 0.2, 1.2, -0.5%, 0.8, 1.7, 0.696
- OCCC1CN(CC#Cc2ccccc2)CCN1Cc1ccccc1F (stereo unspecified)
→ -0.8, 0.8, 0.5, /, -4.4, 1.4, 0.661
- CC(=O)c1cccc(NC(=O)C(CC(C)C)NC(=O)C2CCCCC2)c1 (stereo unspecified)
→ 4.0, 1.5, -1.5, -3.3%, -10.3, 5.0, 0.704
- O=C(O)c1cc(Cl)c(Cl)cc1C(=O)NCc1ccco1
→ -1.5, 0.0, -6.9, /, -2.8, 2.0, 0.679
- CC(C)N1CCN(CCCc2ccccc2)CC1CCO (stereo unspecified)
→ -0.1, 1.9, 1.7, /, -2.9, 0.3, 0.672
- CC(NC(=O)CCc1ccccc1)c1cc2c(cc1Cl)OCCO2 (stereo unspecified)
→ -1.1, 0.9, 0.4, -7.5%, 0.5, 1.4, 0.686
- COc1ccc([N+](=O)[O-])cc1NCc1ccco1
→ -2.1, 0.1, 3.3, ?, 1.3, /, /
- CCC(Oc1ccccc1F)C(=O)NCCN1CCOCC1 (stereo unspecified)
→ 3.3, -0.1, 3.3, /, 2.2, 3.0, 0.66
- Cc1cccc(C(=O)NNC(=O)C2CCN(C(=O)OC(C)(C)C)CC2)c1
→ 0.1, 0.8, 2.3, -8.1%, 13.8, 0.2, 0.678
- CCN1CCN(S(=O)(=O)c2cc(OCC(=O)NC3CCCCC3)c(C)cc2Cl)CC1
→ 4.0, -0.6, 4.4, 4.2%, -2.0, 2.5, 0.697
- COc1ccc(OCCSc2nc(N)cc(N)n2)cc1
→ 2.5, 0.0, 2.3, -3.6%, 12.5, 3.2, 0.659
- CCCCn1c(N)c(N(CCOC)C(=O)c2ccc(F)c(S(=O)(=O)N3CCOCC3)c2)c(=O)[nH]c1=O
→ -3.5, -0.1, -1.3, -3.9%, -4.0, -0.7, 0.672
- O=C(OCn1nnc2ccccc2c1=O)c1ccc(Br)o1
→ -3.2, -0.5, 4.7, 17.4%, 10.4, 5.2, 0.73
